High-throughput results from PubChem BioAssay.
MLL AF4-AF9 inh – blocks AF4 peptide binding to human AF9; AlphaScreen, biotin-AF4 peptide binding to FLAG-AF9; inhibition, % at 10 µM; 350,000 tested, 0.47% active; AID 651704;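 active means every replicate reaching a set inhibition limit, whatever the replicate mean, cut at about 25% in these data; inconclusive means mean inhibition reaches that limit but some replicates miss it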;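 further: 0% = plate neutral control median and 100% = total signal loss; the record names both 10 and 1 µM as test concentration; the first replicate is given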
Target sequence (P42568 whole entry, looked up): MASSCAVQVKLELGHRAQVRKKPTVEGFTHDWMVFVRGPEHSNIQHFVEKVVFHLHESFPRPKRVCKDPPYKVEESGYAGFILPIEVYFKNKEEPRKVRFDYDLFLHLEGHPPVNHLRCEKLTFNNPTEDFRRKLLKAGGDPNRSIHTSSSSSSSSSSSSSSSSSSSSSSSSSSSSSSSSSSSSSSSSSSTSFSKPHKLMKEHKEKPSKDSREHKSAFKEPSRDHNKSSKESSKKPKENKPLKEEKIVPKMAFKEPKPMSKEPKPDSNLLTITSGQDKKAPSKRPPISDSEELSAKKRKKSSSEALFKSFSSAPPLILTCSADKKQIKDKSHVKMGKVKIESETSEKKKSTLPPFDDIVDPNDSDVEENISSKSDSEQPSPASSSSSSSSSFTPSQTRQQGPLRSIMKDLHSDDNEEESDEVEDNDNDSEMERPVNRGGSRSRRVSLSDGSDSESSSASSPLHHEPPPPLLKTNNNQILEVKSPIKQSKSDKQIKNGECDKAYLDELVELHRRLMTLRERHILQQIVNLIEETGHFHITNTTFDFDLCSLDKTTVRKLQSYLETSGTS
FGF22 binding – FGF22 (human) thermal shift binding. Q9HCT0. recombinant FGF22 thermal shift, SYPRO orange fluorescence; percent of sucrose octasulfate shift, DMSO zero. calls only at 9.99 µM. 340,000 tested, 1.5% active. AID 651658;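 active means melting point raised past a set limit in the mean and every replicate; inconclusive means no clear call; three in four hits are not shown here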
Target sequence (Q9HCT0 whole entry, looked up): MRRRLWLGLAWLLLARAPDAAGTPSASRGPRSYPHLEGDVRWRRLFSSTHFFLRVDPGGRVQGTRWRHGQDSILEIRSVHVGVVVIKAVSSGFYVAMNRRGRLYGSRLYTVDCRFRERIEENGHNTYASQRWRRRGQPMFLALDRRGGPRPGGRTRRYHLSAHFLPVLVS
rRNA inh HTS – inhibits bacterial ribosomal RNA function over humanized ribosomes; E. coli WT GFP vs humanized-ribosome RFP mutants, fluorescence, 24 h; hits give low values; DMSO median 0, no signal -100; GFP signal change (wild-type ribosome), % (no concentration beside the values); 350,000 tested, 1.6% active;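 active means significant combined selectivity score with lowered wild-type GFP, culture density cut under 30%, mutant RFP and density less affected; inactive means any of these conditions unmet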; further: one replicate is shown; some compounds called inactive have numbers as strong as hits
rRNA inh HTS OD600 – also measured in rRNA inh HTS; calls as there; OD600 change, %; measured here: OD600 growth;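 optical density of the mix in the first replicate; 0 = DMSO median and -100 = no signal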
rRNA inh HTS RFP – recorded beside rRNA inh HTS, whose call it bears; RFP signal change, %; measured here: RFP humanized mutant strains;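 first replicate; 0 = DMSO median and -100 = no signal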
* marks the source's active call; other numbers are inactive results; i = inactive; ? = inconclusive; / = no result given; & = joins results of further samples.

Every second line gives: MLL AF4-AF9 inh, FGF22 binding, rRNA inh HTS, rRNA inh HTS OD600, rRNA inh HTS RFP
O=C(C[C@@H]1C=C[C@H](NC(=O)Nc2ccccc2F)[C@H](CO)O1)NCc1ccc(Cl)cc1
  -0.8, i, -3.5, -3.1, -0.8
COc1ccc(S(=O)(=O)N(C)C[C@H]2OCCCC[C@@H](C)Oc3ccc(NC(=O)CCC(F)(F)F)cc3C(=O)N([C@@H](C)CO)C[C@@H]2C)cc1
  -0.2, i, -2.4, 0.0, 0.3
O=C(C[C@@H]1CC[C@H](NS(=O)(=O)c2cccc(F)c2)[C@H](CO)O1)N1CCCCC1
  0.0, i, -1.4, 4.9, -1.9
C[C@@H]1CN([C@@H](C)CO)C(=O)c2cccc(NS(C)(=O)=O)c2O[C@H]1CN(C)Cc1ccncc1
  -1.1, i, 0.4, 7.7, -2.2
COc1ccc(Cc2c(-c3ccc(Cl)cc3)nc3cc(C)c(Br)c(C)n23)c(C)c1
  0.6, i, 24.4, 22.4, 35.5
CC(C)NC(=O)Nc1ccc2c(c1)C(=O)N([C@@H](C)CO)C[C@@H](C)[C@@H](CN(C)Cc1ccc3c(c1)OCO3)O2
  -0.8, i, 5.2, 2.1, 1.0
CN(C(=O)CN1CCN(c2cc(-c3ccc(-c4ccccc4)cc3)ncn2)CC1)c1ccccc1
  0.0, i, -16.0, -40.0, 19.5
CCCS(=O)(=O)NC(=O)C1(C)CCN(C(=O)c2ccc(OC)cc2OC)C1 (centres undefined)
  -1.5, i, 12.2, 10.6, 2.2
C[C@@H]1CN([C@H](C)CO)C(=O)c2cccc(NS(=O)(=O)c3ccc(Cl)cc3)c2O[C@@H]1CN(C)Cc1ccc(C(F)(F)F)cc1
  5.5, i, -4.2, -16.1, 1.2
O=C(Nc1nnc([C@H]2C[C@H](O)[C@@H](CO)O2)s1)c1cccc(OC(F)(F)F)c1
  -0.1, i, -2.2, -2.4, -1.3
CC(C)C[C@H]1CN(CCCC[C@H]2CNC(=O)C(=O)N2CC2CCCCC2)C(=O)C(=O)N1CC1CCCCC1
  4.5, i, 7.6, 14.8, -2.1
CCN1[C@@H]2c3ccc(C4=CCCC4)c(=O)n3C[C@H]1[C@H](CO)[C@H]2C(=O)NCc1ccccn1
  -1.8, i, 4.9, 11.7, 1.2
COc1ccc(CN(C)C[C@@H]2Oc3ccc(NS(=O)(=O)c4ccc(Cl)cc4)cc3CC(=O)N([C@@H](C)CO)C[C@@H]2C)cc1
  1.5, i, 2.8, -47.3, 17.9
C[C@@H]1CCCCO[C@@H](CN(C)C(=O)c2ccccc2)[C@@H](C)CN([C@H](C)CO)C(=O)c2cc(NC(=O)CCC(F)(F)F)ccc2O1
  -3.2, i, 4.9, 11.0, -0.2
CO[C@H]1CN(C)C(=O)c2ccc(NC(=O)NC(C)C)cc2OC[C@@H](C)N(C(=O)CC2CC2)C[C@@H]1C
  0.5, i, 0.8, 0.9, -1.1
CCCCn1nnnc1C1(C)CCC(=O)N1CCCN1CCOCC1 (centres undefined)
  -5.1, i, 19.0, 15.7, 1.3
C[C@@H]1CN([C@H](C)CO)C(=O)c2cccc(NS(=O)(=O)c3cn(C)cn3)c2O[C@H]1CN(C)C
  -1.7, i, 0.7, 0.6, 2.3
CCN(C(=O)c1ccc(NC(=O)C2CCCCC2C(=O)O)cc1)c1ccccc1 (centres undefined)
  -4.6, i, 2.2, -4.9, 1.0
COc1cccc(S(=O)(=O)N2C[C@H](O)COC[C@@H]3O[C@H](CC(=O)NCCCN4CCOCC4)CC[C@H]32)c1
  0.3, i, i, /, /
CO[C@@H](CN(C)Cc1nccs1)[C@H](C)CN([C@@H](C)CO)S(=O)(=O)c1ccc(F)cc1
  -0.5, i, 0.1, 5.5, 0.1
CNC[C@H]1Oc2ccc(NC(=O)Nc3ccc(F)cc3)cc2C(=O)N([C@H](C)CO)C[C@H]1C
  3.3, i, 2.7, 12.7, 0.0
C[C@@H]1CN([C@H](C)CO)C(=O)c2cc(NC(=O)c3ccncc3)ccc2O[C@@H](C)CCCCO[C@@H]1CN(C)Cc1ccc(C(F)(F)F)cc1
  0.0, i, 5.7, -11.1, 14.2
C[C@@H]1CN([C@@H](C)CO)S(=O)(=O)c2ccc(C#CCN(C)C)cc2O[C@@H]1CN(C)Cc1ccc2c(c1)OCO2
  16.7, i, 1.6, 14.1, -0.2
C[C@@H]1CN([C@@H](C)CO)C(=O)c2cc(-c3ccccc3F)cnc2O[C@H]1CN(C)Cc1ccccc1
  0.4, i, 3.4, 6.9, 2.8
COCC(=O)N1[C@@H](CO)[C@@H](c2ccccc2)C12CN(Cc1cc(F)ccc1F)C2
  -1.4, i, -0.3, -4.5, 2.5
O=C(C[C@H]1C[C@@H]2c3cc(NC(=O)C4CCOCC4)ccc3O[C@@H]2[C@H](CO)O1)NCc1cccc(F)c1
  -7.1, i, 1.2, 1.6, -2.8
CC(C)NC(=O)Nc1ccc2c(c1)CC(=O)N([C@@H](C)CO)C[C@@H](C)[C@@H](CN(C)Cc1ccc(C(F)(F)F)cc1)O2
  1.5, i, -1.4, -2.1, -0.6
Nc1ncnc2c1ncn2[C@@H]1O[C@H](C(=O)NS(=O)(=O)c2ccccc2[N+](=O)[O-])[C@@H](O)[C@H]1O
  -2.6, i, 6.1, 15.2, -1.5
C[C@@H](O)C#Cc1ccc2c(c1)O[C@@H](CN(C)Cc1cncnc1)[C@@H](C)CN([C@@H](C)CO)S2(=O)=O
  3.2, ?, 1.0, 2.0, 3.3
Cc1ccc(S(=O)(=O)N(C)C[C@H]2OCCCC[C@H](C)Oc3ccc(NC(=O)Nc4ccc(F)cc4)cc3C(=O)N([C@@H](C)CO)C[C@@H]2C)cc1
  1.8, i, 1.0, 5.6, -2.7
O=C(C(=Cc1ccccc1)c1ccccc1)c1ccccc1
  8.0, i, 0.4, -15.7, 4.0
Cc1ccccc1S(=O)(=O)N1C[C@H](O)COC[C@H]2O[C@@H](CC(=O)N3CCCCC3)CC[C@@H]21
  -1.2, i, -0.2, 5.0, -0.9
CCCN(C)C[C@H]1OCCCC[C@@H](C)Oc2ccc(NS(=O)(=O)c3ccc(Cl)cc3)cc2C(=O)N([C@H](C)CO)C[C@@H]1C
  -3.9, i, 3.7, 8.9, -0.8
O=C(Nc1ccccc1F)N1C[C@@H]2[C@H](c3ccccc31)[C@H](CO)N2C(=O)c1ccc(F)cc1
  -1.3, i, 3.6, 4.9, -0.5
O=C(c1ccc(F)cc1)N1[C@H](CO)[C@H]2c3ccccc3NC[C@H]21
  0.4, i, 1.5, 4.4, -2.9
Cc1ccc(S(=O)(=O)N[C@H]2C=C[C@@H](CC(=O)N3CCc4ccccc4C3)O[C@H]2CO)cc1
  -2.6, i, -0.3, -7.1, -0.3
C[C@@H]1CCCCO[C@@H](CN(C)S(=O)(=O)c2ccc(Cl)cc2)[C@@H](C)CN([C@H](C)CO)C(=O)c2cc(NS(=O)(=O)c3cccs3)ccc2O1
  -2.4, i, -0.1, -4.0, -1.3
CN(C)C(=O)C[C@@H]1C[C@H]2c3cc(NC(=O)NC4CCCC4)ccc3O[C@H]2[C@@H](CO)O1
  -0.4, i, 0.1, 6.6, -0.3
C[C@H](CO)N1C[C@H](C)[C@H](CN(C)C(=O)Nc2ccc(F)cc2)Oc2ncc(C#CCC3CCCC3)cc2C1=O
  1.5, i, 3.9, 2.5, -0.5
C[C@H]1CN([C@@H](C)CO)C(=O)CCCn2cc(nn2)CO[C@H]1CN(C)Cc1cccc(C(=O)O)c1
  -5.6, i, 0.9, 2.2, -1.7
O=C1CCCCC1Nc1ccc(Cl)cc1 (centres undefined)
  -54.5, i, -16.2, -17.4, -1.9
O=C([C@@H]1[C@@H](CO)[C@@H]2Cn3c(ccc(C4=CCCC4)c3=O)[C@H]1N2C(=O)c1ccncc1)N1CCOCC1
  -0.7, i, 2.0, 5.0, -2.0
COc1ccc(CN(C)C[C@H]2Oc3ccc(NC(=O)Nc4c(C)noc4C)cc3CC(=O)N([C@@H](C)CO)C[C@@H]2C)cc1
  -1.1, i, 2.6, 6.6, -2.0
CCC1(C)CC(C#N)(C#N)C(=O)NC1=O (centres undefined)
  0.1, i, 3.6, 4.2, 1.2
C[C@@H]1CCCCO[C@@H](CN(C)CC2CC2)[C@H](C)CN([C@@H](C)CO)C(=O)c2cc(NS(C)(=O)=O)ccc2O1
  -1.9, i, 6.2, 5.4, -1.5

In the list so far, 2 have two or more sulfur atoms.
Every second line gives: MLL AF4-AF9 inh, FGF22 binding, rRNA inh HTS, rRNA inh HTS OD600, rRNA inh HTS RFP
CO[C@@H](CN(C)Cc1nccs1)[C@H](C)CN([C@@H](C)CO)S(=O)(=O)c1ccc(F)cc1
  -0.5, i, 0.1, 5.5, 0.1
C[C@@H]1CCCCO[C@@H](CN(C)S(=O)(=O)c2ccc(Cl)cc2)[C@@H](C)CN([C@H](C)CO)C(=O)c2cc(NS(=O)(=O)c3cccs3)ccc2O1
  -2.4, i, -0.1, -4.0, -1.3

Next part
Every second line gives: MLL AF4-AF9 inh, FGF22 binding, rRNA inh HTS, rRNA inh HTS OD600, rRNA inh HTS RFP
CC(NCCN(C)C)C1CCC2C3CCc4cc(O)ccc4C3CCC12C (centres undefined)
  17.0, i, -59.0, -79.2, -16.9
C[C@@H]1CN([C@H](C)CO)S(=O)(=O)c2ccc(Br)cc2O[C@@H]1CN(C)C(=O)CN(C)C
  -4.9, i, -0.2, 1.8, -2.6
CC(=O)N[C@H]1CC[C@H](CC(=O)NCc2ccc(Cl)cc2)O[C@H]1CO
  -11.1, i, 1.2, 2.7, -2.1
O=C(C[C@@H]1CC[C@@H]2[C@H](COC[C@@H](O)CN2Cc2cc(F)cc(F)c2)O1)NC1CCCC1
  -0.4, i, -8.7, -12.0, -2.8
C[C@H](CO)N1C[C@H](C)[C@@H](CN(C)C(=O)C2CC2)OCc2cnnn2CCCC1=O
  -0.9&-1.4&-1.9, i, 1.1&0.6, 11.1&-6.2, -3.1&-1.1
C[C@H]1CN([C@@H](C)CO)C(=O)CCCn2cc(nn2)CO[C@H]1CN(C)CC1CCCC1
  0.3, i, 3.3, 19.2, 2.9
Cc1ccc(Cc2c(-c3ccco3)nc3c4ccccc4ccn23)cc1
  6.0, i, -7.2, 9.5, 9.0
C[C@H](CO)N1C[C@H](C)[C@@H](CN(C)S(=O)(=O)c2ccccc2)Oc2ncc(C#Cc3ccccc3F)cc2C1=O
  1.3, i, -3.7, -13.9, -1.5
CS(=O)(=O)N1CCCCN2[C@H](CO)[C@@H](c3ccc(C4=CCCC4)cc3)[C@H]2C1
  28.3*, i, 2.8, -2.8, 1.6
C[C@@H]1CN([C@@H](C)CO)C(=O)c2cc(NC(=O)Nc3ccc(C(F)(F)F)cc3)ccc2O[C@@H]1CN(C)C(=O)Nc1ccc(C(F)(F)F)cc1
  -1.2, i, -7.3, -3.1, -2.6
CCCNC(=O)N(C)C[C@@H]1Oc2ncc(C3=CCCC3)cc2C(=O)N([C@@H](C)CO)C[C@@H]1C
  -2.0, i, 3.8, 3.2, -2.8
O=C(C[C@H]1CC[C@@H]2[C@H](COC[C@H](O)CN2Cc2nccs2)O1)NCc1ccc(-c2ccccc2)cc1
  -0.4, i, -1.1, -9.7, -3.2
CCCC(=O)N1CCC1(C)C(=O)NS(=O)(=O)c1cccc(Cl)c1 (centres undefined)
  0.4, i, 7.0, 8.9, -4.0
COc1ccc(NC(=O)N(C)C[C@H]2Oc3ccc(NC(=O)Nc4ccc(C(F)(F)F)cc4)cc3CC(=O)N([C@@H](C)CO)C[C@@H]2C)cc1
  5.1, i, -1.3, -1.7, 4.9
COC(=O)c1cccc(N2C(=O)C[C@](Sc3ccc(C)cc3)(C(=O)OC)[C@H]2c2ccccc2)c1
  2.0, i, 15.8, 2.0, 2.5
C[C@H](CO)N1C[C@H](C)[C@H](CN(C)S(=O)(=O)c2cn(C)cn2)Oc2ncc(C#CC(C)(C)O)cc2C1=O
  -7.3, i, -5.5, 7.0, -1.2
COCC#Cc1cnc2c(c1)C(=O)N([C@H](C)CO)C[C@H](C)[C@@H](CN(C)C(=O)c1cccc(F)c1)O2
  -3.5, i, 4.7, 15.8, -1.0
O=[N+]([O-])c1ccc(CN2CC(N3CCC(Cc4ccccc4)CC3)CS2(=O)=O)cc1 (centres undefined)
  3.5, i, -5.9, -12.1, 1.9
CN(C)C(=O)c1cccc(-c2cccc(-c3nc(C(=O)NC4CCCCC4)cc4c3[C@@H](CCO)N([S@](=O)C(C)(C)C)C4)c2)c1
  11.9, i, -5.0, 1.6, 33.7
Cc1ccc(S(=O)(=O)N(C)C[C@H]2OCCCC[C@H](C)Oc3ccc(NS(=O)(=O)c4cccs4)cc3C(=O)N([C@H](C)CO)C[C@@H]2C)cc1
  1.4, i, -8.8, -5.9, 1.0
Cc1ccc(S(=O)(=O)N(C)C[C@H]2Oc3ccc(NC(=O)Nc4ccc(C(F)(F)F)cc4)cc3CC(=O)N([C@@H](C)CO)C[C@@H]2C)cc1
  -2.3, i, 0.6, 0.1, -1.0
C[C@@H]1CN([C@@H](C)CO)C(=O)Cc2cc(NS(=O)(=O)c3ccc(F)cc3)ccc2O[C@H]1CN(C)S(=O)(=O)c1ccc(F)cc1
  3.0, i, -5.8, -14.6, 3.3

This is a subset (hit frequency here may not be typical).
